CDC25B CDK2 inh: primary biochemical HTRF screen for blockers of M-phase inducer phosphatase 2 binding to CDK2/cyclin A | P30305+P24941 | HTRF CDC25B-CDK2/CyclinA binding, anti-His/anti-Flag; hits give high values | z-score (test concentration not listed) | actives 0.72% (n = 94,000) | AID 1259370, 2018;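 note: score is relative to mean and SD of negative controls; strong numbers were not always called active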
TAR Tat displ: TAR RNA-Tat peptide displacers, HIV-1, primary screen, biochemical, FRET, FAM/TAMRA-labeled Tat; HIV-1 TAR RNA, Tat peptide displacement FRET; hits give high values; z-score (no concentration beside the values); actives 0.6% (n = 100,000);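 note: score is relative to mean and SD of negative controls; some compounds called inactive have numbers as strong as hits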
Starred values were filed as active, the others as inactive.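 Rule for the calls: active = z-score from 3 up in half or more of its runs; inactive = the rest.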

A first look (twelve entries):
Screening COc1ccc(CN2CCC(N3CCCCC3)CC2)cc1Br returned CDC25B CDK2 inh 0.17 and TAR Tat displ 0.
`CC1CCc2sc(N3C(=O)C4CC=C(Cl)CC4C3=O)c(C#N)c2C1` (configuration not stated) gave CDC25B CDK2 inh -0.29.
For CCOc1cc(/C=c2\sc3nc4ccccc4n3c2=O)cc(Br)c1OCCOc1ccc(C)cc1 the results were CDC25B CDK2 inh -4.1.
For Cc1[nH]nc(-c2ccc(S(=O)(=O)NCc3ccccc3Cl)s2)c1C the results were TAR Tat displ 1.5.
For COC(=O)c1c(NS(=O)(=O)c2ccc(OC)c(OC)c2)sc2c1CCCC2 the results were CDC25B CDK2 inh 0.09 and TAR Tat displ 0.81.
Cc1nnsc1C(=O)N1CCC(C(F)(F)F)CC1 was read as CDC25B CDK2 inh -1.3.
For CC(C)Nc1cc(N2CCN(c3ncccn3)CC2)c2noc3c2c1C(=O)c1ccccc1-3 the results were CDC25B CDK2 inh 1.8 and TAR Tat displ 0.64.
Screening CCCN(c1ccccc1F)S(=O)(=O)c1ccc2c(c1)NC(=O)C(C)CS2 (configuration not stated) returned TAR Tat displ 0.74.
`CC12CN3CC(c4ccccc4)(CN(C1)C3c1ccc(OCc3ccccc3)cc1)C2=O` (configuration not stated) gave CDC25B CDK2 inh 0.09 and TAR Tat displ 0.36.
Screening COc1ccc(NC2c3ncccc3C(=O)N2c2ccc(OC)cc2)cc1 (configuration not stated) returned TAR Tat displ 0.13.
Screening O=c1c2[nH]c3ccc(Cl)cc3c2ncn1Cc1ccccc1Cl returned CDC25B CDK2 inh 0.42.
Screening O=c1c(N2CCN(c3cccc(Cl)c3)CC2)csc2ccc(F)cc12 returned TAR Tat displ -1.

The whole of this part, from the first entry:
Screening COc1ccc(CN2CCC(N3CCCCC3)CC2)cc1Br returned CDC25B CDK2 inh 0.17 and TAR Tat displ 0.
`CC1CCc2sc(N3C(=O)C4CC=C(Cl)CC4C3=O)c(C#N)c2C1` (configuration not stated) gave CDC25B CDK2 inh -0.29.
For CCOc1cc(/C=c2\sc3nc4ccccc4n3c2=O)cc(Br)c1OCCOc1ccc(C)cc1 the results were CDC25B CDK2 inh -4.1.
For Cc1[nH]nc(-c2ccc(S(=O)(=O)NCc3ccccc3Cl)s2)c1C the results were TAR Tat displ 1.5.
For COC(=O)c1c(NS(=O)(=O)c2ccc(OC)c(OC)c2)sc2c1CCCC2 the results were CDC25B CDK2 inh 0.09 and TAR Tat displ 0.81.
Cc1nnsc1C(=O)N1CCC(C(F)(F)F)CC1 was read as CDC25B CDK2 inh -1.3.
For CC(C)Nc1cc(N2CCN(c3ncccn3)CC2)c2noc3c2c1C(=O)c1ccccc1-3 the results were CDC25B CDK2 inh 1.8 and TAR Tat displ 0.64.
Screening CCCN(c1ccccc1F)S(=O)(=O)c1ccc2c(c1)NC(=O)C(C)CS2 (configuration not stated) returned TAR Tat displ 0.74.
`CC12CN3CC(c4ccccc4)(CN(C1)C3c1ccc(OCc3ccccc3)cc1)C2=O` (configuration not stated) gave CDC25B CDK2 inh 0.09 and TAR Tat displ 0.36.
Screening COc1ccc(NC2c3ncccc3C(=O)N2c2ccc(OC)cc2)cc1 (configuration not stated) returned TAR Tat displ 0.13.
Screening O=c1c2[nH]c3ccc(Cl)cc3c2ncn1Cc1ccccc1Cl returned CDC25B CDK2 inh 0.42.
Screening O=c1c(N2CCN(c3cccc(Cl)c3)CC2)csc2ccc(F)cc12 returned TAR Tat displ -1.
O=C(Nc1ccc(I)cc1)c1cc(S(=O)(=O)N2CCOCC2)ccc1Cl was read as CDC25B CDK2 inh -3.
COc1cccc(-c2nn3c(-c4ccccc4OC)nnc3s2)c1 was read as CDC25B CDK2 inh 0.55 and TAR Tat displ 2.6.
Screening Cc1nc(-c2ccc(S(=O)(=O)NCCC3=CCCCC3)cc2)co1 returned TAR Tat displ -0.62.
CCCSc1nnc2c(n1)OC(C)N(C(C)=O)c1ccccc1-2 (configuration not stated) was read as CDC25B CDK2 inh -0.44 and TAR Tat displ -1.8.
COC(=O)c1c(NC(=O)c2cc(=O)c3cc(C)c(C)cc3o2)sc2c1CCCC2 was read as CDC25B CDK2 inh -2.3 and TAR Tat displ 1.1.
Cc1ccc2oc(=O)c3cnn(CC(=O)N(CC(C)C)CC(C)C)c3c2c1 was read as CDC25B CDK2 inh -0.29 and TAR Tat displ -0.48.
For Cc1ccc(NS(=O)(=O)c2ccc(-c3cc(C)no3)cc2)c(Br)c1 the results were TAR Tat displ -6.
Screening CN(NC(=O)c1ccc(Cl)s1)c1cnn(-c2cc(Cl)cc(Cl)c2)c(=O)c1Cl returned CDC25B CDK2 inh -1.7.
O=C(Nc1ccc2nc3n(c(=O)c2c1)CCCCC3)C(=O)N1CCCCCC1 was read as CDC25B CDK2 inh 0.5.
Screening O=C(Cn1nnc(N2CCCCC2)n1)N/N=C/c1ccccn1 returned CDC25B CDK2 inh 0.37.
For Cc1ccc(-c2csc(NC3OC(=O)c4ccccc43)n2)cc1 (configuration not stated) the results were CDC25B CDK2 inh 0.3 and TAR Tat displ 0.24.
`COc1cc(C2C(C(=O)OC(C)C)=C(C)NC3=C2C(=O)CC(c2ccccc2)C3)ccc1O` (configuration not stated) gave CDC25B CDK2 inh -3.6 and TAR Tat displ 2.8.
`O=C(CSc1nccn1Cc1ccc2c(c1)OCO2)NCc1ccc(F)cc1` gave TAR Tat displ 0.58.
`CC(C)c1onc(C(=O)Nc2cc(Br)ccc2O)c1[N+](=O)[O-]` gave CDC25B CDK2 inh -1.4 and TAR Tat displ 2.5.
For Cc1ccc(-c2c(N3CCc4ccccc4C3)c(=O)c2=O)cc1 the results were TAR Tat displ 2.5.
CCc1ccc(S(=O)(=O)N2CCC(N3CCOCC3)CC2)cc1 was read as TAR Tat displ 0.75.
`CN1CCN(c2c(S(=O)(=O)c3ccccc3)cnc3cc4c(cc23)OCCO4)CC1` gave CDC25B CDK2 inh -2.7 and TAR Tat displ -1.9.
For O=C(O)Cn1c(-c2ccccc2)nc2ccccc21 the results were TAR Tat displ 1.2.
`Cn1c(=O)c2c(nc(N3CCN(C(=O)Nc4ccc(F)cc4F)CC3)n2C)n(C)c1=O` gave CDC25B CDK2 inh -1.8 and TAR Tat displ 0.45.
For CN(Cc1ccco1)S(=O)(=O)c1ccc2c(c1)OCC(C(=O)N1CCCCC1)O2 (configuration not stated) the results were TAR Tat displ 0.49.
For O=C1C2CCCCC2C(=O)N1CCc1c[nH]c2ccccc12 (configuration not stated) the results were CDC25B CDK2 inh -0.73.
Screening CCN(CC)CCNc1cc(C)nc2c(-c3ccc(F)cc3)c(C)nn12 returned CDC25B CDK2 inh -2.7 and TAR Tat displ 0.81.
COc1cc(/C=C2\N=C(c3ccc(Cl)c([N+](=O)[O-])c3)OC2=O)ccc1OCc1ccc(F)cc1 was read as CDC25B CDK2 inh -2.4.
Screening CCN(C(=O)c1ccc2c(c1)OCO2)c1nc(-c2ccc(Br)cc2)cs1 returned CDC25B CDK2 inh -0.6 and TAR Tat displ 1.7.
CC1=C(c2ccc(Cl)cc2)S(=O)(=O)N=C1Nc1cc(C)cc(C)c1 was read as CDC25B CDK2 inh -2.8 and TAR Tat displ 0.97.
O=C(Nc1ccc(N2CCC(n3cccc3)CC2)cc1)c1ccccc1Cl was read as CDC25B CDK2 inh -0.97.
Cc1c(C(=O)NCC2CCCO2)oc2c1-c1[nH]ncc1CC2 (configuration not stated) was read as CDC25B CDK2 inh -0.12 and TAR Tat displ -0.62.
For Oc1ccccc1C1=Nc2ccccc2N=C(C(F)(F)F)C1 the results were CDC25B CDK2 inh -2.5 and TAR Tat displ 1.3.
Screening CC1(C)CC(=O)C2=C(C1)Nc1ccccc1NC2c1ccccc1OCc1ccccc1 (configuration not stated) returned CDC25B CDK2 inh 0.02 and TAR Tat displ 0.96.
Screening COC(=O)C(C)Nc1ncnc2onc(C)c12 (configuration not stated) returned TAR Tat displ 0.38.
`CCCCC(=O)Nc1ccc2nc(SCc3cc(=O)n4nc(C)sc4n3)sc2c1` gave TAR Tat displ 0.36.
For CCCn1c(NCc2ccccc2F)nc2ccccc21 the results were CDC25B CDK2 inh 0.77 and TAR Tat displ 1.1.
Cc1ccc(CN(C(=O)c2sc3cccc(Cl)c3c2Cl)C2CCS(=O)(=O)C2)o1 (configuration not stated) was read as CDC25B CDK2 inh -2.1 and TAR Tat displ 1.2.
`CCN(CC)CCNC(=O)c1cnc2scc(C)n2c1=O` gave TAR Tat displ 0.48.
Screening O=C(Cn1c(=O)n(Cc2ccco2)c(=O)c2oc3ccccc3c21)NCc1ccccc1 returned TAR Tat displ 1.5.
For O=c1[nH]c(-c2ccc(Cl)cc2)nc2c1Cc1cc(F)ccc1O2 the results were CDC25B CDK2 inh -1.1 and TAR Tat displ 1.6.
For O=C(Nc1ccc2[nH]c(=O)c(=O)[nH]c2c1)c1ccco1 the results were CDC25B CDK2 inh 0.67 and TAR Tat displ 0.22.
`CCN(CC)S(=O)(=O)c1ccc2c(c1)nnn2CCCC(N)=O` gave TAR Tat displ 1.9.
Screening COc1ccc2nc(SCC(=O)OC3CC4CCC3(C)C4(C)C)[nH]c2c1 (configuration not stated) returned CDC25B CDK2 inh -0.8 and TAR Tat displ 1.3.
CN1CCN(c2ccccc2NC(=O)c2nn(C)c3c2CSc2ccccc2-3)CC1 was read as CDC25B CDK2 inh -2.2 and TAR Tat displ 1.4.
For CCOc1ccc(S(=O)(=O)NCc2cn3ccccc3n2)cc1 the results were CDC25B CDK2 inh -0.47.
For Cc1ccc(NC(=O)N2CCCC2c2ccco2)cc1C (configuration not stated) the results were CDC25B CDK2 inh -2.1 and TAR Tat displ 1.3.
Screening NC(=O)NCc1cccs1 returned CDC25B CDK2 inh -1.9.
COc1cc(/C=C2\CCCCC2=O)cc(OC)c1OC was read as CDC25B CDK2 inh -1.1.
`CCOCCCNC(=O)c1oc2ccc3c(c2c1C)C(=O)CC(C)(C)O3` gave CDC25B CDK2 inh -2.8.
Screening O=C(Cc1cccs1)Nc1c(C(=O)N2CCN(c3ncccn3)CC2)oc2ccccc12 returned TAR Tat displ -0.12.
`Cc1cc(N2CCN(c3ccccn3)CC2)n2nc(C)c(-c3ccccc3)c2n1` gave CDC25B CDK2 inh 1.5 and TAR Tat displ 0.49.
For COc1ccc(CSc2nc3ncccc3[nH]2)cc1 the results were TAR Tat displ 1.2.
Screening Cc1cc(C)c(NC(=O)c2ccc3c(c2)C(=O)N(c2ccc(Sc4ccc([N+](=O)[O-])cc4)cc2)C3=O)c(C)c1 returned CDC25B CDK2 inh -2.9.
For CCOc1ccc(CN2CCc3nc(N4CCOCC4)ncc3C2)cc1OCC the results were TAR Tat displ 1.6.
`O=C1Cc2cc(S(=O)(=O)Nc3cccc(Cl)c3)cc3c2N1CCC3` gave TAR Tat displ 1.3.
CCCCC(CC)CNC(=O)Cn1c(=O)[nH]c2ccsc2c1=O (configuration not stated) was read as CDC25B CDK2 inh -1 and TAR Tat displ 3.
For O=C(c1ccc(Cn2c(SCc3ccccc3)nc3ccncc32)cc1)N1CCCC1 the results were CDC25B CDK2 inh -0.22 and TAR Tat displ -0.1.
COC(=O)c1ccc(COCOCc2ccc(C(=O)OC)o2)o1 was read as CDC25B CDK2 inh -2.9.
For COc1cc(C2OCC3C(C)C=C(C)C2C3C)ccc1OCc1ccc(C(=O)O)cc1 (configuration not stated) the results were CDC25B CDK2 inh -2.3.
`c1ccc(-c2nnc3ccc(NCCN4CCOCC4)nn23)cc1` gave CDC25B CDK2 inh -0.01.
Screening CC(C)OCC(O)Cn1c(NCc2ccco2)nc2c1c(=O)[nH]c(=O)n2C (configuration not stated) returned CDC25B CDK2 inh -1.3 and TAR Tat displ 3.3.
Screening CNC(=O)c1ccc(N2CCOc3ccc(Cl)cc32)s1 returned TAR Tat displ 0.95.
O=C(Oc1nsnc1N1CCOCC1)c1ccccc1 was read as CDC25B CDK2 inh -0.08.
`CC1Cc2cc(-c3cc(C(=O)Nc4sc5c(c4C(=O)NCc4ccco4)CCC5)no3)ccc2O1` (configuration not stated) gave CDC25B CDK2 inh -1.6 and TAR Tat displ 1.1.
`c1ccc(-c2noc(NCCc3ccsc3)n2)cc1` gave TAR Tat displ -1.4.
Screening CCOc1ccccc1-n1nnc(S(=O)(=O)c2ccc(C(C)C)cc2)c1C returned CDC25B CDK2 inh -1 and TAR Tat displ -1.
For CCOC(=O)CC(=O)CSc1nc(C(F)(F)F)cc(C)c1C#N the results were CDC25B CDK2 inh -0.74.
Screening CCCN(CCC)CCNC(=O)C1=C(C)C(=O)OC12CCN(C(C)=O)CC2 returned TAR Tat displ 0.39.
`CCOC(=O)c1cc(CC)sc1NC(=O)CC1Sc2ccccc2NC1=O` (configuration not stated) gave CDC25B CDK2 inh -4.7 and TAR Tat displ -0.08.
`O=C(Nc1ccc2nc3n(c(=O)c2c1)CCCC3)C1COc2ccccc2O1` (configuration not stated) gave CDC25B CDK2 inh -1.6 and TAR Tat displ -0.48.
For O=S(=O)(Cc1ccc(F)cc1)Cc1noc(-c2ccc(F)cc2Cl)n1 the results were CDC25B CDK2 inh -2.3.
O=C1CNC(=S)N1Cc1ccccc1Cl was read as CDC25B CDK2 inh -1.8.
Screening CC1CC(=O)Nc2cc(S(=O)(=O)Nc3cc(F)ccc3F)ccc2S1 (configuration not stated) returned TAR Tat displ 0.8.
CCn1ccc2cc(S(=O)(=O)N3CCCC(C(=O)N4CCCC4)C3)ccc21 (configuration not stated) was read as TAR Tat displ 0.16.
NC(=O)c1cc(S(=O)(=O)NCc2ccc(Br)cc2)cs1 was read as TAR Tat displ 0.44.
For O=C(CN1CCN(c2ccc(Cl)cc2)CC1)c1ccc2[nH]ccc2c1 the results were CDC25B CDK2 inh -0.53 and TAR Tat displ 0.02.
CNc1nc(NCc2ccc(F)cc2)c2cnn(C)c2n1 was read as TAR Tat displ 0.72.
CCOC(=O)C1=C(C)NC2=C(C(=O)C(C(=O)OC)C(C)C2)C1c1ccccc1 (configuration not stated) was read as CDC25B CDK2 inh -0.65.

Screening results: PubChem BioAssay, Center for Chemical Genomics, University of Michigan

An unsorted share of the library, and some 0.87% of all compounds hit somewhere here.
